# Assay outcomes as filed in PubChem BioAssay.
# RN4220 kill – kills Staphylococcus aureus RN4220. S. aureus RN4220 growth, OD600, 16 h. inhibition, % (test concentration not listed). 330,000 compounds, 0.33% hits;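 active means z-score of -3 or lower and OD600 up to 0.18 on both plates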;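 further: plate controls were untreated cells for no effect and reference antibiotic for full effect; stock transfer was 100 nL into about 80 µL; one replicate is shown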
# PrP 5UTR inh – suppresses PrP 5' UTR mRNA reporter expression. cell-based PrP 5' UTR mRNA reporter, plate reader. inhibition, % (test concentration not listed). 340,000 compounds, 0.35% hits. AID 488862;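 active means every replicate at 50% or more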;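 further: 0 = median of the neutral control wells; tested in H4 reporter cells; numbers are from one replicate; inactives centre near -14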
# Mtb hypoxia inh – inhibitors of hypoxia-regulated fluorescent reporter in Mycobacterium tuberculosis; fluorescence inhibition, % (concentration not given with the values); M. tuberculosis hypoxia-regulated fluorescent reporter, fluorescence; 300,000 compounds, 0.1% hits; AID 1159583;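 active means 35 to 45% if threefold the growth effect, above 45% if 1.5-fold the growth effect; inactive means the rest, general growth blockers included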;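 further: wells of about 50 µL received 100 nL stock; 0% = vehicle wells and 100% = reference inhibitor wells; whole bacteria with a GFP reporter of the hypoxia response; strong numbers were not always called active; many hits fall short of the cut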
# Bead autofluor – compound fluorescence in toxin protease inhibitor counterscreen; compound autofluorescence counterscreen, microsphere flow cytometry; hits give high values; fluorescence intensity (no concentration beside the values); 360,000 compounds, 3.1% hits; AID 624483;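 active means at least 3 SD above the mean of all compounds, about 16000 in these data; inconclusive means too few beads counted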;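 further: 100 nL of 1 mM stock went into each well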
# Sa ugtP lethal – compounds lethal to S. aureus RN4220 ugtP deletion mutant. OD600 growth, 16 h; some inactives read as strong as hits. growth inhibition, % (no concentration beside the values). 330,000 compounds, 0.54% hits;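 active means z-score under -3 and OD600 up to 0.15 on both plates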;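 further: plate controls were untreated wells for no effect and antibiotic for full effect; wells of about 80 µL received 100 nL stock; the first replicate is given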
# BJeLR viability – kills HRASV12-expressing BJeLR cells; BJeLR (HRASV12) viability, CellTiter-Glo ATP luminescence, 48 h; reference of the scale not given here; inhibition, % (no concentration beside the values); 300,000 compounds, 0.17% hits; AID 1554;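 active means replicate mean above 50%; inconclusive means above 50% but judged a plate artefact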;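 further: 50 nL library stock added to about 25 µL; numbers are from one replicate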
# Mtb hypoxia inh growth – further read-out of Mtb hypoxia inh, marked with its call; growth inhibition, %; measured here: M. tuberculosis growth (absorbance);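 0% = vehicle and 100% = reference antibiotic; read after six days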
# * = called active by the depositor; ? = inconclusive; . = not tested or not shown.
# Sequence of screens – RN4220 kill	PrP 5UTR inh	Mtb hypoxia inh	Mtb hypoxia inh growth	Bead autofluor	Sa ugtP lethal	BJeLR viability
> CC(C(=O)OCc1nnc(-c2ccccc2)o1)N1C(=O)c2ccccc2C1=O (stereo not drawn)
 : 6.2	-5	.	.	2907	-6	5
> COc1cccc(CNC(=O)CCC2CCCN(Cc3ccc4c(c3)CCO4)C2)c1 (stereo not drawn)
 : 1.2	-19	-2	7	3364	7	11
> CCCCNCc1cc(OCC)c(OCC(N)=O)cc1Br
 : 0.2	8	4	13	10818	1	-4
> COc1ccc(C2/C=C\CN(C(=O)NC(C)C)CC(=O)N2Cc2ccc(F)cc2)cc1 (stereo not drawn)
 : .	5	.	.	3914	.	5
> COC(=O)c1ccc(NC2c3ncccc3C(=O)N2Cc2cccs2)cc1 (stereo not drawn)
 : -0.6	-25	10	5	1971	-1	1
> CCOc1ccccc1-n1c(COc2ccc(C)cc2)nnc1SCC(N)=O
 : 3.9	-11	3	2	22748*	3	-19
> COc1ccc(NC2=NCCC2)cc1
 : 6.6	0	11	10	2832	-3	0
> COc1ccc(S(=O)(=O)N2CCN(CC(=O)Nc3sccc3C(N)=O)CC2)cc1OC
 : -1.9	-11	-3	9	8886	-2	.
> Cn1nnnc1SCC(=O)c1c(N)n(C)c(=O)n(C)c1=O
 : 3.2	-26	.	.	4183	-2	1
> CCN(CC)c1ccc(C(=O)OCc2c(C)noc2C)cc1
 : 8.5	6	-9	-3	4550	10	3
> O=C(Nc1cc2nn(-c3ccccc3)nc2cc1Cl)c1ccco1
 : -1.3	-67	.	.	3711	-1	4
> OCc1n[nH]c(CO)n1
 : 0.6	10	4	10	10786	4	2
> O=C(CCCN1C(=O)c2cccc3cccc(c23)C1=O)N1CCN(c2ccccc2O)CC1
 : 10	6	16	9	2517	-2	-14
> CCOC(=O)c1[nH]ncc1CN1CCCC(C(=O)c2ccc(OC)cc2C)C1 (stereo not drawn)
 : -2.3	-11	-4	5	2463	4	-6
> COc1ccc(C(=O)OCc2c(F)cccc2Cl)cc1S(=O)(=O)N1CCOCC1
 : 1.9	2	-11	-3	3741	-4	.
> COc1cccc(CNc2ncn[nH]2)c1OCc1ccccc1F
 : 4.1	-26	7	10	3961	3	-12
> COC(=O)Nc1nnc(Cc2ccc(OC)cc2)s1
 : -0.1	-18	-4	-2	8977	2	-6
> CC(=O)C1C2c3ccccc3OC1(C)N=c1s/c(=C/c3cnn(C)c3)c(=O)n12 (stereo not drawn)
 : .	-19	.	.	3140	.	-7
> Cc1cccc(N(CC(=O)NC2CCCC2)C(=O)c2cc3cc4cccc(C)c4nc3s2)c1C
 : -8.0	-55	-3	3	9432	4	-6
> CC(=O)Nc1c(NC(C)C)c2ccccc2oc1=O
 : 5.7	-8	4	2	3338	9	1
> CCc1ccc(C(=O)COC(=O)CNC(=O)C2CCCCC2)cc1
 : 1.6	-72	4	-1	4424	7	.
> O=C(C[C@H]1C/C=C\C[C@H](NC(=O)OCC2c3ccccc3-c3ccccc32)C(=O)O[C@@H](c2ccccc2)CNC1=O)NCCO
 : 0.2	-15	-2	7	2780	1	.
> CCOC(=O)c1c(-c2ccccc2)[nH]c2ccc(O)cc12
 : 5.0	-9	.	.	3724	-15	1
> CCOc1ccc2c(c1)c(=O)c(S(=O)(=O)c1ccc(C)cc1)cn2CC
 : 2.4	-4	-5	3	5467	4	-6
> Cc1ccc(CN2CCC(n3nccc3NC(=O)c3ccccc3C)CC2)o1
 : .	-6	.	.	6120	.	8
> Nc1nc(NCc2ccco2)nc(Nc2ccc(F)cc2)c1[N+](=O)[O-]
 : 0.1	-1	5	0	3798	0	1
> O=S(=O)(NCC(c1ccco1)N1CCN(c2ccccc2F)CC1)c1ccc2c(c1)OCCO2 (stereo not drawn)
 : 2.4	-18	10	10	2619	59	-15
> CC(=O)c1cccc(NC(=O)c2ccc(N(Cc3ccc(C)cc3)S(C)(=O)=O)cc2)c1
 : 0.8	-7	2	-4	17101*	-7	-1
> COc1ccc(C(CNC(=O)COc2ccc(F)cc2Cl)N2CCCCC2)cc1 (stereo not drawn)
 : 0.2	-8	-2	5	3519	1	.
> C=CCNC(=S)N/N=C/c1ccc(C)s1
 : .	-18	.	.	4433	.	-5

# Other entries follow.
compound | RN4220 kill | PrP 5UTR inh | Mtb hypoxia inh | Mtb hypoxia inh growth | Bead autofluor | Sa ugtP lethal | BJeLR viability
C#CCn1c2ccccc2c2nc3ccccc3nc21 | -0.6 | -44 | 2 | 12 | 3862 | 4 | 3
COc1ccccc1-c1nc2ccccc2c(=O)n1NC(=O)c1cccs1 | 1.8 | -8 | 7 | -3 | 2548 | 3 | -8
CCOc1ccc(NC(=O)Nc2ccc(N(C)C(C)=O)cc2)cc1 | 1.7 | -16 | 13 | 9 | 4350 | 3 | -7
CCN(C(=O)COC(=O)c1cc(OC)c(OC)cc1[N+](=O)[O-])C1CCS(=O)(=O)C1 (stereo not drawn) | 3.1 | -2 | 10 | -3 | 5397 | 1 | -15
CC(Oc1ccc2c3c(c(=O)oc2c1)CCCC3)C(=O)NCc1ccncc1 (stereo not drawn) | 1.6 | -14 | 15 | 1 | 5155 | 0 | 4
Cc1c(-c2ccccc2)n[nH]c1C(=O)N=Nc1c(O)[nH]c2ccccc12 | 7.6 | -28 | 13 | 1 | 2592 | 6 | 2
CCc1ccc(OCC(=O)NC(=S)Nc2ccc(C)cc2C)c(Br)c1 | -5.8 | -11 | -3 | 0 | 9282 | -27 | 3
Cc1ccc(S(=O)(=O)N2CCC(C(=O)OCC(=O)N(C)CC(=O)Nc3ccc(F)cc3)CC2)cc1C | 3.2 | -8 | 5 | 10 | ? | -12 | -5
C=CCOC(=O)C1=C[C@@H](c2coc3ccccc3c2=O)[C@H](CCCO)[C@@H](OCC)O1 | . | -6 | . | . | 3804 | . | 4
Cc1cc(C(=O)NN=Cc2ccc(-c3ccc([N+](=O)[O-])cc3Cl)o2)n[nH]1 | 7.6 | . | -2 | 9 | . | -5 | .
Nc1c(O)cccc1C(=O)O | 0.7 | -10 | -6 | 2 | 5025 | -2 | 9
CCCCNS(=O)(=O)c1ccc(OCC(=O)OC)cc1 | 7.2 | -11 | 12 | -1 | 2701 | 6 | 6
COC(=O)CC(=O)Cc1nc(N)nc(Nc2ccc(C)c(C)c2)n1 | 0.8 | -21 | 5 | 4 | 6895 | -9 | -7
C[C@H]1CN(C2CCCCC2)C(=O)[C@@H]1CC(=O)NCc1ccccc1 | . | -23 | . | . | 3115 | . | 5
CC(C)(C)c1ccc(/C=C/C(=O)N2CCOCC2)cc1 | 9.5 | -67 | 13 | 6 | 2270 | 4 | 21
Cc1cccc([N+](=O)[O-])c1NC(=O)CN(Cc1ccccc1)Cc1ccccc1 | 1.5 | -22 | 10 | 4 | 1994 | 99* | 0
Cc1ccc(-n2nc3c([n+]2[O-])CCc2nonc2-3)cc1 | 0.4 | -22 | 3 | -12 | 2234 | 3 | 0
COc1ccc(OC)c(Nc2nc(N)nc(CSc3nnc(-c4ccncc4)o3)n2)c1 | 4.4 | . | -3 | 4 | . | -7 | -1
COc1ccc(N2C(=O)c3ccccc3NC2(C)C)cc1 | 3.9 | -57 | 2 | 4 | 5664 | 3 | 5
COC(=O)CCCC1CC2(CC(CCCO[Si](C)(C)C(C)(C)C)N1C(=O)OC(C)(C)C)OCCO2 (stereo not drawn) | 8.5 | . | 3 | 4 | . | -7 | .
O=C(Nc1cccnc1)c1ccc(CSc2ccccc2)cc1 | 3.3 | -51 | -5 | 3 | 4482 | -5 | 4
Cc1nn(C2CCOC(C)(C)C2)c2c1C(c1ccc(OC(C)C)cc1)SCC(=O)N2 (stereo not drawn) | -1.7 | 17 | 0 | 10 | 21930* | -9 | 2
c1ccc(CCn2nnnc2C(c2cccnc2)N2CCN(c3nc4ccccc4s3)CC2)cc1 (stereo not drawn) | 1.4 | -24 | -7 | 15 | 11425 | -1 | -4
C=C1CCC(O)C2(C)CCC3C(C)C(=O)OC3C12O (stereo not drawn) | 2.6 | -15 | 9 | -2 | 4121 | 1 | 0
CCCCNS(=O)(=O)c1ccc2nc(-c3cccnc3)cc(C(=O)NCCCN(CC)CC)c2c1 | 5.3 | . | 16 | 5 | . | -74 | -2
Cc1ccc(CS(=O)Cc2ccc(C(=O)NC3CCCC(C)C3C)o2)cc1 (stereo not drawn) | 2.4 | -25 | 9 | 8 | 5098 | 2 | -3
c1ccc(-c2ccccc2OCCCN2CCCC2)cc1 | 2.4 | -31 | 18 | 12 | 2215 | -2 | -8
O=C(CS(=O)(=O)Cc1ccccc1)Nc1ccc(S(=O)(=O)N2CCOCC2)cc1 | 1.1 | 0 | 8 | 7 | 2208 | 2 | 0
O=C(OCc1ccc(Cl)c(Cl)c1)c1ccc[nH]1 | 0.5 | -49 | -6 | 0 | 6282 | -6 | -6
O=C(CSc1nnc(-c2cccs2)n1Cc1ccco1)Nc1ccc2c(c1)OCO2 | -11 | -6 | 14 | 7 | 2797 | -3 | 6
O=C(COC(=O)c1c(F)cccc1F)NCc1ccc2c(c1)OCO2 | -2.4 | 0 | 1 | 9 | 4196 | -6 | .
O=C(N/N=C/c1cccs1)c1cc(-c2ccc3ccccc3c2)n[nH]1 | . | -21 | . | . | 2324 | . | -4
Cc1nc2sc(C(c3ccco3)N3CC(C)OC(C)C3)c(O)n2n1 (stereo not drawn) | 1.1 | -14 | . | . | 4155 | 1 | -1
O=C(NC(=O)c1c(F)cccc1F)Nc1cc(Cl)c(F)c(Cl)c1F | 14 | -34 | 7 | -1 | 3177 | 18 | 13
COc1cc(OC)cc(C(=O)N[C@H](C(=O)Nc2cc(F)ccc2C)C(C)C)c1 | 2.1 | -24 | 0 | 4 | 3065 | 2 | 16
COC(=O)c1ccc(OC)c(CN2CCCN(Cc3ccc(F)cc3)S2(=O)=O)c1 | 1.3 | -5 | 7 | -5 | 3174 | 9 | 0

# Grouped by structure: those above with an aryl thioether with sulfur outside any ring
compound | RN4220 kill | PrP 5UTR inh | Mtb hypoxia inh | Mtb hypoxia inh growth | Bead autofluor | Sa ugtP lethal | BJeLR viability
CCOc1ccccc1-n1c(COc2ccc(C)cc2)nnc1SCC(N)=O | 3.9 | -11 | 3 | 2 | 22748* | 3 | -19
Cn1nnnc1SCC(=O)c1c(N)n(C)c(=O)n(C)c1=O | 3.2 | -26 | . | . | 4183 | -2 | 1
COc1ccc(OC)c(Nc2nc(N)nc(CSc3nnc(-c4ccncc4)o3)n2)c1 | 4.4 | . | -3 | 4 | . | -7 | -1
O=C(Nc1cccnc1)c1ccc(CSc2ccccc2)cc1 | 3.3 | -51 | -5 | 3 | 4482 | -5 | 4
O=C(CSc1nnc(-c2cccs2)n1Cc1ccco1)Nc1ccc2c(c1)OCO2 | -11 | -6 | 14 | 7 | 2797 | -3 | 6

# Additional records follow:
compound | RN4220 kill | PrP 5UTR inh | Mtb hypoxia inh | Mtb hypoxia inh growth | Bead autofluor | Sa ugtP lethal | BJeLR viability
COc1cccc(CC(=O)Nc2nc3ccccc3[nH]2)c1 | -1.8 | -26 | 12 | 5 | 3184 | 1 | 20
CC(C)NC(=O)CN(c1cccc(Br)c1)S(C)(=O)=O | 2.0 | -43 | 15 | 0 | 9195 | 8 | -7
CC(C)(NC(=O)N1CCCC1)c1cccc(C(C)(C)NC(=O)N2CCCC2)c1 | -1.1 | -4 | . | . | 3459 | -1 | -2
O=C(Nc1cccc(Cl)c1)Nc1ccccc1C(=O)O | . | -51 | . | . | 8318 | . | 19
Cn1c(/C=C/N2CCOCC2)c(C(=O)c2ccc(Br)cc2)c(=O)n(C)c1=O | -8.6 | 4 | . | . | 2217 | -8 | -4
COc1cc(C(C)=O)ccc1OCC(=O)Nc1ccccc1N1CCCCC1 | 1.1 | -26 | 12 | -5 | ? | -2 | 19
CCC(=O)c1ccc(SC(=O)N(C)C)cc1O | 3.4 | -20 | 0 | 3 | 5581 | 7 | -1
O=C(Nc1ccc2c(c1)OCO2)c1ccc(S(=O)(=O)NCC2CCCO2)cc1 (stereo not drawn) | -4.9 | -12 | . | . | 2890 | -10 | -5
Cc1ccc(C)n1-c1ccc(-c2nnco2)cc1 | . | -20 | . | . | 5004 | . | -4
C=C(c1ccccc1O)n1ccnc1 | 3.0 | . | 4 | -1 | 3098 | 6 | -7
CCOc1ccc(-n2cnnn2)cc1S(=O)(=O)NC1CC1 | 3.1 | -13 | 7 | 0 | 11881 | -2 | -7
